CDC25B-CDK2 inh: human CDC25B-CDK2/CyclinA binding inhibition | P30305+P24941 | HTRF CDC25B-CDK2/CyclinA binding, anti-His/anti-Flag; stronger effect = higher value | z-score (concentration not given with the values) | actives 0.72% (n = 94,000) | AID 1259370;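 further: score is relative to mean and SD of negative controls; strong numbers were not always called active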
HIV TAR-Tat: HIV-1 TAR-Tat binding disruption; z-score (test concentration not listed); HIV-1 TAR RNA, Tat peptide displacement FRET; stronger effect = higher value; actives 0.6% (n = 100,000); AID 1259389;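 further: score is relative to mean and SD of negative controls; some compounds called inactive have numbers as strong as hits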
The depositor's hits bear a star; / = no result given.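 How the source made its calls: active means z-score from 3 up in half or more of its runs; inactive means the rest.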 Rows are unselected. Share with any hit: about 0.9%.

SMILES	CDC25B-CDK2 inh	HIV TAR-Tat
O=C(CCCn1c2ccccc2c2cn[nH]c(=O)c21)NCCCN1CCCC1=O	0.1	-0.46
Cn1nc(C(=O)NCc2ccc3c(c2)OCO3)c2c1-c1ccccc1SC2	-1.73	1.42
Cc1cc(SCC(=O)N2CCCc3ccccc32)ncn1	-1.52	-1.83
CN(C)c1ccc(NC(=O)CSc2nc(-c3ccco3)cc(C(F)(F)F)n2)cc1	-0.65	0.28
COc1cccc(OCCn2c(C(F)(F)F)nc3ccccc32)c1	0.08	/
O=C(c1ccc(F)cc1)N1C=CC(C(F)(F)F)=NCC1	-3.92	/
Cc1ccc(NS(=O)(=O)c2ccc(-c3ccc(=O)[nH]n3)s2)cc1Cl	/	-0.01
Cc1c(C(=O)O)nnn1-c1ccccc1Oc1ccc(Cl)cc1Cl	-0.73	/
Clc1ccc(OCc2nc(-c3ccc(-n4cccc4)cc3)no2)cc1	-0.7	1.6
CN(C)Cc1c(O)ccc2c(=O)c(-c3cccc(Cl)c3)c(C(F)(F)F)oc12	-0.42	-0.46
CC1CC(C)CN(S(=O)(=O)c2ccc3c(c2)CC(C)N3C(=O)C2CCC2)C1 (configuration not stated)	/	-1.07
c1cnc2sc(N3CCC4(CC3)OCCO4)nc2c1	-2.25	/
O=C1c2ccccc2S(=O)(=O)N1Cc1ccc(-c2csnn2)cc1	-0.56	/
CCOC(=O)c1c(C)oc2ncnc(NCCCN3CCCCC3)c12	/	-1.3
Cn1cc(S(=O)(=O)c2ccccc2)c(=O)c2cc(F)c(F)cc21	-2.29	1.61
Brc1c(CSc2nnc(-c3ccccc3)o2)nc2ncccn12	/	0.55
Cc1ccc(Nc2nc3ccccc3c3nnc(C)n23)c(Cl)c1	0.99	0.94
CCN1CCN(c2ncc3c(n2)CCN(Cc2ccc(Cl)cc2)C3)CC1	/	1.13
O=[N+]([O-])c1cccnc1Oc1ccc(-c2nnco2)cc1	1.32	/
CCCC1=NN(C(=O)COc2ccccc2)C(O)(C(F)(F)F)C1 (configuration not stated)	-2.09	/
O=C(Nc1ccccc1)N1CCCN(Cc2c(F)cccc2Cl)CC1	-0.37	/
O=C(O)c1ccc(-c2ccc(Br)cc2)o1	/	1.58
Cc1nnc(Oc2cccc(Br)c2)c2ccccc12	/	1.4
NC(=O)/C=C/c1cccc(C(F)(F)F)c1	-3.34	/
O=C(Cn1c(=O)oc2cc(Cl)ccc21)N1CCN(Cc2ccc3c(c2)OCO3)CC1	/	0.96
Cc1ccc(C(=O)NCCc2sccc2C)cc1NC1=NC2CS(=O)(=O)CC2S1 (configuration not stated)	/	0.32
CCOC(=O)C1=C(C)OC(N)=C(C#N)C1c1ccccc1C (configuration not stated)	-0.76	/
Cc1cn2c(nc1=O)O[C@H]1C[C@H]2O[C@@H]1COC(=O)c1ccccc1	-1.77	1.37
COc1ccc(OC)c(C2NC(C(=O)O)CS2)c1 (configuration not stated)	-1.68	1.04
O=c1[nH]c2ccccc2n1CCCOc1ccc(Cl)cc1	-1.47	/

Given as comma-separated lines: part of the list above
SMILES,CDC25B-CDK2 inh,HIV TAR-Tat
CN(C)Cc1c(O)ccc2c(=O)c(-c3cccc(Cl)c3)c(C(F)(F)F)oc12,-0.42,-0.46
CC1CC(C)CN(S(=O)(=O)c2ccc3c(c2)CC(C)N3C(=O)C2CCC2)C1 (configuration not stated),/,-1.07
c1cnc2sc(N3CCC4(CC3)OCCO4)nc2c1,-2.25,/
O=C1c2ccccc2S(=O)(=O)N1Cc1ccc(-c2csnn2)cc1,-0.56,/
CCOC(=O)c1c(C)oc2ncnc(NCCCN3CCCCC3)c12,/,-1.3
Cn1cc(S(=O)(=O)c2ccccc2)c(=O)c2cc(F)c(F)cc21,-2.29,1.61
Brc1c(CSc2nnc(-c3ccccc3)o2)nc2ncccn12,/,0.55
Cc1ccc(Nc2nc3ccccc3c3nnc(C)n23)c(Cl)c1,0.99,0.94
CCN1CCN(c2ncc3c(n2)CCN(Cc2ccc(Cl)cc2)C3)CC1,/,1.13
O=[N+]([O-])c1cccnc1Oc1ccc(-c2nnco2)cc1,1.32,/
CCCC1=NN(C(=O)COc2ccccc2)C(O)(C(F)(F)F)C1 (configuration not stated),-2.09,/
O=C(Nc1ccccc1)N1CCCN(Cc2c(F)cccc2Cl)CC1,-0.37,/
O=C(O)c1ccc(-c2ccc(Br)cc2)o1,/,1.58
Cc1nnc(Oc2cccc(Br)c2)c2ccccc12,/,1.4
NC(=O)/C=C/c1cccc(C(F)(F)F)c1,-3.34,/
O=C(Cn1c(=O)oc2cc(Cl)ccc21)N1CCN(Cc2ccc3c(c2)OCO3)CC1,/,0.96
Cc1ccc(C(=O)NCCc2sccc2C)cc1NC1=NC2CS(=O)(=O)CC2S1 (configuration not stated),/,0.32

(listing goes on)
SMILES	CDC25B-CDK2 inh	HIV TAR-Tat
COCc1cc(=O)[nH]c(NC(C)=O)n1	-0.69	/
Cc1ccc2nc(Nc3cccc(Cl)c3)c3nncn3c2c1	-0.98	0.92
Oc1c(CN2CCCCC2)cc(COCc2ccccc2)c2cccnc12	-0.3	/
O=C(COCc1cc(-c2cccs2)on1)NCC1CCCO1 (configuration not stated)	/	-2
CCc1n(CC(O)COc2cccc(OC)c2)c2ccccc2[n+]1C (configuration not stated)	-0.24	1.04
COc1ccc(NC(=O)CCc2nnc3ccc(N4CCOCC4)nn23)cc1OC	/	0.18
Clc1ccc2nnc(-c3ccccc3)n2n1	0.84	-0.39
COc1ccc(Br)cc1C1C(C(=O)OC(C)C)=C(C)Nc2nnnn21 (configuration not stated)	-0.04	-1.46
CSc1nc2n(n1)C(c1ccccc1C)C1=C(CCCC1=O)N2 (configuration not stated)	-1.04	1.08
Fc1ccccc1CN1CCN(Cc2cccc3ccccc23)CC1	0.23	/
O=C(Nc1ccccc1)Nc1nc2ccccc2s1	-4.8	/
CC1(C)NC(=O)N(CC(O)COc2cccc(F)c2)C1=O (configuration not stated)	-0.38	0.18
CCOC(=O)C1=C(C)NC2=C(C(=O)CC(c3ccc(OC)cc3)C2)C1c1ccc(OC)c(OC)c1 (configuration not stated)	-0.69	1.33
CCCN(CCC)S(=O)(=O)c1ccc(-c2ccc(=O)[nH]n2)o1	/	3.07
COc1ccc(-c2noc(-c3cc(-c4ccc5ccccc5c4)n[nH]3)n2)cc1	/	0.82
C=CCN(c1ccccc1)c1nc(C(=O)OCC)nc2ccccc12	/	1.45
Cc1c(CNCC2CCCO2)c(C(=O)O)c(C)n1Cc1ccccc1 (configuration not stated)	-0.39	0.81
COCC(=O)N1c2nc(C3CCCCC3)nn2C2(CCCCC2)[C@@H]2CCCC[C@@H]21	0.13	0.81
COc1ccc(Nc2nc(N3CCC(N4CCCCC4)CC3)nc3c2cnn3C)cc1	/	1.8
CC(=O)OCC(=O)c1ccc2c(c1)CCN2C(C)=O	-2.26	1.36
CCCC12CN3CC(C)(CN(C1)C3c1ccc(CC)cc1)C2=O (configuration not stated)	-2.61	-0.91
CCOC(=O)c1c(NS(=O)(=O)c2ccc(Br)cc2)sc2c1CCCC2	-2.03	/
CNC(=O)Sc1c(-c2ccc(Cl)cc2)nn(C(=O)NC)c1SC	-1.22	/
COc1ccc(OC)c(C2CCN(S(=O)(=O)c3ccc(-c4ccc(=O)[nH]n4)s3)C2)c1 (configuration not stated)	/	0.95
CC1(C)Cc2c(sc3c2c(=O)[nH]c(=O)n3Cc2ccccc2)CO1	-0.49	-1.38
O=C1C(c2ccccc2F)N(CCc2ccccc2)C(=O)CN1C1CCCCCC1 (configuration not stated)	0.56	/
O=c1[nH]nc(N2CCCCC2)c2ccccc12	-0.59	-0.61
Cc1c(C(=O)N2CCCCC2)oc2ccc(S(=O)(=O)N3CCOCC3)cc12	0.81	/
Cc1cccc(Oc2ccc(N=Cc3ncc([N+](=O)[O-])n3C)cn2)c1C	-1.2	/
Cc1ccc(CNC(=O)CCc2c(C)nn(-c3ccc(N4CCCC4)nn3)c2C)o1	/	0.13
Cn1nc(C2CC2)cc1NC(=O)Nc1ccc(OC(F)(F)F)cc1	-3.21	/
C[C@]12CCC(=O)C=C1CCC1C2C(=O)C[C@@]2(C)C1CC[C@]2(O)C(=O)CO (some centres not stated)	/	-0.72
Cc1ccc(-c2cn3c(n2)sc2cc(C(=O)NC(C)C)ccc23)c(C)c1	/	1.53
Cc1ccc(-c2cn3cccnc3n2)cc1NC(=O)c1ccc(F)c(F)c1	-1.19	/
COc1ccc(OCc2nc(C#N)c(NCCN(C)C)o2)cc1	0.29	0.74
CC(C)OCc1nc2ccccc2n1C	-1.76	1.14
Fc1ccc(-n2ncc3c(NCCCN4CCOCC4)ncnc32)cc1	/	-0.39
CC(=O)c1cc([N+](=O)[O-])c(N2CCOCC2)s1	-1.69	/
Cc1c(C#N)sc2ccccc12	-1.24	/
O=S(=O)(NCCc1csc2nc(-c3ccc(Cl)cc3)nn12)c1ccccc1	/	1.12
COc1ccc(CCN2C(=O)c3[nH]nc(-c4ccccc4O)c3C2c2ccc(OC)cc2)cc1 (configuration not stated)	-1.52	0.15
COC(=O)C1=C(OC(=O)c2ccccc2Cl)c2ccccc2S(=O)(=O)N1C	-1.04	-0.49
Cc1ccsc1CCNc1c(-c2ccc(C(C)C)cc2)c(=O)c1=O	/	2.22
COc1ccc(C2NC(=O)NC3=C2CCc2ccccc23)cc1 (configuration not stated)	-6.33	/
CCOc1ccc(-c2cn(-c3ccccc3)c3[n+]2CCS3)cc1	-0.49	1.31
Cc1ccc(C2Oc3ccccc3C3CC(c4cccs4)=NN32)o1 (configuration not stated)	-2.63	/
CCCNC(=O)Cn1c(=O)n(CC2CCC(C(=O)N3CCCC3)CC2)c(=O)c2sccc21 (configuration not stated)	/	-0.02
Clc1ccc(Nc2nc(-c3ccccc3)no2)cc1	/	0.18
O=C1CC(c2ccccc2)SC(c2ccccc2)C1 (configuration not stated)	-0.23	0.81
O=C(COCc1cc(-c2ccc3c(c2)OCO3)on1)NCCC1=CCCCC1	/	0.85
O=C(c1ccccc1)N1CCN(c2ccc3nnc(-c4ccccc4)n3n2)CC1	-0.14	/
CCN(CC)CCNS(=O)(=O)c1cc2c(cc1C)NC(=O)CO2	/	-0.07
CCCCN(CC)S(=O)(=O)c1cc(-c2cc(C)no2)ccc1C	/	1.01
Cc1cccc(-c2noc(Cn3c(=O)[nH]c4cc5c(cc4c3=O)OCO5)n2)c1	/	0.52
CCOc1ccc(-c2nc(-c3ccc(C)cc3)no2)cc1OCC	-0.55	0.97
COC(=O)c1sc(N2C(=O)c3oc4ccccc4c(=O)c3C2c2ccc(OC)c(OC)c2)nc1C (configuration not stated)	-1.06	1.88
COCC(C)NC(=O)C1=CC(c2ccc(C)cc2)=NS(=O)(=O)N1C (configuration not stated)	-1.78	2.37
COc1ccc(C2=NN3C(C2)c2ccccc2OC3C(C)C)cc1 (configuration not stated)	0.71	2.21
O=C(CSc1nncn1-c1ccc(C(F)(F)F)cc1)c1cc2ccccc2o1	0.77	/
O=C(CSc1nnnn1-c1ccccc1)Nc1ncc(Br)s1	1.11	0.77
Next part:
SMILES	CDC25B-CDK2 inh	HIV TAR-Tat
CC(C)n1c(=O)c2ccc(C(=O)NC3CCCC3)cc2n2c(=O)[nH]nc12	-2.25	2.12
CC(C)C(NC(=O)NCCc1ccccc1)c1nc2cccnc2n1C(C)C (configuration not stated)	/	0.68
CC(C)CNC(=O)C1CCC(Cn2c(=O)[nH]c3ccsc3c2=O)CC1 (configuration not stated)	-0.74	0.59
COC(=O)c1ccc2nsnc2c1	-1.54	0.22
CCOC(=O)C1=C(C)N=C2SCCC(=O)N2C1c1ccc(OC(C)=O)c(OC)c1 (configuration not stated)	0.93	0.88
Cc1ccc(C(O)(CC(C)C)C(CN2CCOCC2)c2ccccc2)cc1 (configuration not stated)	-0.76	-0.84
CCN1CCN(C(=O)C2CCN(c3ncnc4c3nc3n4CCCCC3)CC2)CC1	/	-1.52
Fc1ccc(-c2cn3cc(Cc4ccccc4Cl)sc3n2)cc1	-1.74	-1.34
Cc1ccccc1C1CC(=O)Nc2c1c(C)nn2-c1nncc(-c2ccc(Cl)cc2)n1 (configuration not stated)	-0.76	0.84
O=c1[nH]c(-c2ccc(Cl)cc2)nc2c1CSC2	-1.04	/
COCc1c(Br)c(C)nc2sc3c(=O)n(-c4ccccc4F)nnc3c12	-0.2	1.39
CN(C(=O)CSc1nc2ncccc2o1)c1ccccc1	/	0.83
CC(C)(C)n1nc(-c2ccc(Cl)cc2)c2c(N)ncnc21	/	1.12
O=c1[nH]nc(C(F)(F)F)c2nnn(Cc3ccccc3Cl)c12	-0.01	-0.59
Cn1c(-c2cccnc2)n[nH]c1=S	0.05	/
CCC1(CC)Cc2ccccc2-c2nc3n(C)nc(SC)n3c(=O)c21	-1.27	-0.42
O=c1c(Oc2ccccc2Br)c(C(F)(F)F)oc2cc(O)ccc12	-1.36	0.42
O=C(c1cc(=O)c2cc(Cl)ccc2o1)N(Cc1cccs1)c1ccccn1	2.41	-1.01
C=CCOc1ccc2c(c1)c(=O)cc(C(=O)O)n2CC	-1.3	/
O=C(c1cnn(-c2ccccc2)c1C1CCNCC1)N1CCN(c2ccccn2)CC1	/	1.45
CC1(C)OC2OC(C(=O)Nc3ccc4c(c3)OCCO4)C3OC(C)(C)OC3C2O1 (configuration not stated)	0.21	/
Cn1c2c(c(=O)n(C)c1=O)C(c1ccsc1)C1=C(N2)c2ccccc2C1=O (configuration not stated)	-3.1	0.67
CSC(=NC#N)N1CCC(C(=O)c2ccccc2)CC1	0.21	/
CCCN1CCN(CCCNC(=O)C2CCCN(c3nnc(N4CCCC4=O)s3)C2)CC1 (configuration not stated)	-0.8	0.99
OCCN(c1ccccc1)c1ncnc2onc(-c3ccc(F)cc3)c12	/	0.16
O=C(CN1c2ccc(Br)cc2-c2ccccc2S1(=O)=O)NCc1ccncc1	-0.03	0.85
CCn1c(SCC(=O)c2ccccc2)nc2sc3c(c2c1=O)CCN(C)C3	0.5	-0.7
CCC(CC)C(=O)Nc1nc2c(s1)CCCC2	-0.27	2.53

Screening results from PubChem BioAssay.
